Screening data deposited in PubChem BioAssay by ICCB-Longwood Screening Facility, Harvard Medical School.
HCMV NEC inh – inhibitors of HCMV UL50-UL53 interaction, biochemical, HTRF; normalized percent inhibition; AID 1918969, 2023; inhibition, % (no concentration beside the values); actives 0.15% (n = 190,000);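 active means both replicates at 50% or more, plus weaker picks with an unusually low signal ratio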;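 further: stock transfer was 100 nL into about 20 µL; 0% = negative control wells and 100% = wells with untagged competitor protein; inactives centre near -12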
Sa growth 42C – S. aureus growth inhibition at 42 and 30 °C, primary screen, LtaS inhibitor project, RN4220, two temperatures; relative growth, % (no concentration beside the values); actives 0.53% (n = 170,000); AID 720641, 2013; OD600, 20 h, 42 °C; hits give low values;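 active means growth at 42 °C up to 50% and 20 or more points under that at 30 °C, or under 10% at both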;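 further: 300 nL library stock went into each well; scaled to the means of positive and negative controls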
GIV-Gai inh – inhibitors of GIV peptide binding to Galpha-i3, primary screen, biochemical, fluorescence polarization, FITC-GIV GBA peptide, rat Galphai3; 90 min; hits give low values; scaled: aluminum fluoride 0%, vehicle 100%; percent of control (FP), % (concentration not given with the values); actives 0.42% (n = 210,000); AID 1224905, 2016;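 active means replicate mean at 85% of control or lower, very high polarization wells dropped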;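 further: wells of about 15 µL received 100 nL stock; the first replicate is given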
Target sequence (P08753 whole entry, looked up): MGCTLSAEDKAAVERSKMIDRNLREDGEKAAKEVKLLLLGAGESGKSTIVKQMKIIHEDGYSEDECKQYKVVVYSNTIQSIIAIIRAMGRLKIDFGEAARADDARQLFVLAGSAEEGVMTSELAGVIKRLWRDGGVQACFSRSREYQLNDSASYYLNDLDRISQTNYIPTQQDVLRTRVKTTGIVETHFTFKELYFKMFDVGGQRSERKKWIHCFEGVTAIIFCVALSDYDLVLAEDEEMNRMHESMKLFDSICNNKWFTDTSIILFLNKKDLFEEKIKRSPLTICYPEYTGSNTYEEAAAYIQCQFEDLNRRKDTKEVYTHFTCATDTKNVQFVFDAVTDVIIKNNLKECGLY
Sa growth 42C second temp – second read-out of Sa growth 42C, no call of its own (marks repeat the call); relative growth, %; measured here: growth at 30 °C;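 optical density after 20 h as mean of two plates; 100% = untreated growth and lower means inhibition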
Active calls of the source: *; . = no result given; & = joins results of further samples. Compounds as they come; overall some 0.8% were active at least once.

SMILES	HCMV NEC inh	Sa growth 42C	Sa growth 42C second temp	GIV-Gai inh
CCOC(=O)COn1c(=O)c(C)[n+]([O-])c2ccccc21	-28	.	.	103
COc1ccc(C2=CN3C(=O)CSC3=NN2)cc1	-17	96	87	.
CS(=O)(=O)N1Cc2ccccc2CC1C(=O)OCC(=O)c1ccc[nH]1 (stereo not drawn)	-21	101	92	.
CCc1ccc(-n2c(=O)c3c4c(sc3n(CC(=O)N3CCC(C)CC3)c2=O)CCC4)cc1	-18&-20	97	95	104&104
O=C(O)c1coc2c(F)c(F)c(F)cc2c1=O	-13	98	80	.
Cc1ccc(OC(C)C(=O)Nc2cc(C)ccc2OCc2cc(=O)n3oc(C)cc3n2)cc1 (stereo not drawn)	-11	.	.	98
O=C(NC1CC1)C1CSC(c2cccs2)=N1 (stereo not drawn)	-8	94	79	105
O=c1nc(N2CCOCC2)ccn1Cc1ccc(Br)cc1	-6	95	97	104
O=C(CCC(=O)N1CC2CCCN2c2ccccc21)NCc1ccco1 (stereo not drawn)	0	97	105	99
COc1ccccc1CNC(=O)CN1C(=O)CCc2cc(S(=O)(=O)N3CCCCC3)ccc21	.	79	78	102
CC(C)Oc1ccc(CNC(=O)C2CCCCN2S(=O)(=O)c2ccc(F)cc2)cc1 (stereo not drawn)	.	80	51	103
O=C(CC1OCCN(Cc2ccccc2)C1=O)Nc1ccc(F)cc1 (stereo not drawn)	-10	70	62	100
Cc1ccccc1CN1CCN(CC(=O)N2CCN(c3ccccn3)CC2)C(=O)C1=O	-41	.	.	114
O=C(OCC1CC2C=CC1C2)c1cc2ccccc2oc1=O (stereo not drawn)	.	104	88	99
C/C(=N\NC(N)=O)C1CCCCC1	-25	98	88	.
Cc1cccc(CNS(=O)(=O)c2ccc(-c3coc(C)n3)cc2)c1	.	105	86	106
C=CCN(c1ccccc1)S(=O)(=O)c1cc2c(cc1C)NC(=O)CO2	-7	.	.	108
COc1ccc(Cl)cc1NC(=O)CSc1nc(-c2ccco2)cc(C(F)(F)F)n1	-15	93	89	99
CCc1ccc2nc(N(CCN(CC)CC)C(=O)c3ccco3)sc2c1	.	115	101	107
CC1(C)CC(NC2CCC(C#N)(c3ccccc3)CC2)CC(C)(C)N1 (stereo not drawn)	-26	83	95	.
Cc1cc(C)n(S(=O)(=O)c2ccc(-c3cc(C(F)(F)F)n(C)n3)s2)n1	-5	86	101	100
Cc1cc(N2CCN(c3ncccn3)CC2)nc2ccc(NC(=O)c3cccc(F)c3)cc12	-26	85	74	107
Cc1nc(-c2ccncc2)nc(NCCNc2ncccc2C(F)(F)F)c1Cl	4	111	101	101
COc1ccc(OCC(=O)NCC(c2ccc(Cl)cc2)N2CCCCC2)cc1 (stereo not drawn)	-15	97	87	100
Cc1nc2ccc(S(=O)(=O)NCC(=O)NCc3ccccn3)cc2s1	1	100	98	107
O=C(CN1C(=O)CC(c2ccco2)Sc2ccccc21)c1ccccc1 (stereo not drawn)	-21	92	80	110
CC(C)(C)C(=O)C[n+]1cccc(/C=N/O)c1	-23	92	84	102
Cc1ccc(N2C(=O)CSC2c2ccccc2C(F)(F)F)cc1C (stereo not drawn)	.	86	88	105
COC(=O)c1cc(S(=O)(=O)N(C)CC(=O)Nc2ccc(Cl)cc2C)cn1C	-18	.	.	103
O=C1CC(Sc2ncccc2C(=O)O)C(=O)N1 (stereo not drawn)	2	112	97	108

By substructure, the compounds so far with an aryl thioether with sulfur outside any ring (two)
SMILES	HCMV NEC inh	Sa growth 42C	Sa growth 42C second temp	GIV-Gai inh
COc1ccc(Cl)cc1NC(=O)CSc1nc(-c2ccco2)cc(C(F)(F)F)n1	-15	93	89	99
O=C1CC(Sc2ncccc2C(=O)O)C(=O)N1 (stereo not drawn)	2	112	97	108

More entries follow:
SMILES	HCMV NEC inh	Sa growth 42C	Sa growth 42C second temp	GIV-Gai inh
Cc1cc(NC(=O)CC(C)C)cc(-c2nc3ncccc3o2)c1O	-16	95	89	105
CC1=C(c2ccc(C(C)C)cc2)S(=O)(=O)N=C1N1CCN(c2ccccc2F)CC1	-2	105	95	103
COc1ccc(C(=O)Nc2nnc(S(=O)(=O)N3CCCCCC3)s2)cc1OC	-11	116	84	99
CCCCN(CC)Cc1ccc(CNC(=O)Nc2ccc(OCC)cc2)o1	-6	98	101	111
O=C(Cn1cnc2nc3c(cc2c1=O)CCCC3)Nc1cccc(Cl)c1	16	.	.	109
N#CCCCOc1ccccc1	-1	94	105	.
COc1cccc(NC(=O)CN(CCc2ccccc2)S(=O)(=O)c2ccc(Cl)cc2)c1	-25	102	94	100
O=C(CC1(C(=O)O)CCCC1)NC1CC1	-6	102	97	.
COc1ccc(C(=O)n2nc3c(c2-c2ccc(OC)cc2)COC(C)(C)C3)cc1	.	111	94	102
Cc1cccc(Cc2cnc(NC(=O)c3ccc4c(c3)CC(c3ccccc3)OC4=O)s2)c1 (stereo not drawn)	-19	110	89	100
Cc1nn(CC(=O)NCCc2c[nH]c3ccc(Cl)cc23)c(=O)c2noc(C)c12	-17	.	.	97
Cc1ccc2c(C)nc(NC3=NC(C(=O)Nc4ccc(Cl)c(Cl)c4)CC(=O)N3)nc2c1 (stereo not drawn)	.	95	92	98
N#CC(C#N)=Cc1cccn1-c1ccc(C(F)(F)F)cc1	-58	99	80	106
Cc1ccc(NC(=O)Cn2ccn(CCc3ccc(S(N)(=O)=O)cc3)c(=O)c2=O)cc1F	.	89	60	96
COc1ccc(Cl)cc1-n1nnc(-c2nc(-c3ccccc3)no2)c1C	.	84	90	107

An excerpt taken from the entries so far, for reference:
SMILES	HCMV NEC inh	Sa growth 42C	Sa growth 42C second temp	GIV-Gai inh
Cc1ccc2c(C)nc(NC3=NC(C(=O)Nc4ccc(Cl)c(Cl)c4)CC(=O)N3)nc2c1 (stereo not drawn)	.	95	92	98
N#CC(C#N)=Cc1cccn1-c1ccc(C(F)(F)F)cc1	-58	99	80	106
Cc1ccc(NC(=O)Cn2ccn(CCc3ccc(S(N)(=O)=O)cc3)c(=O)c2=O)cc1F	.	89	60	96
COc1ccc(Cl)cc1-n1nnc(-c2nc(-c3ccccc3)no2)c1C	.	84	90	107

New compounds follow
SMILES	HCMV NEC inh	Sa growth 42C	Sa growth 42C second temp	GIV-Gai inh
O=C(O)/C=C\C(=O)Nc1ccccc1Sc1nccc(C(F)(F)F)n1	0	99	93	108
COc1cccc(-n2ccn(CC(=O)NCc3ccc(C)cc3)c(=O)c2=O)c1	-22	98	92	97
O=C(NC1CCCCC1)C(c1ccncc1)N(CC1CCCO1)C(=O)C(F)(F)F (stereo not drawn)	-26	112	90	102
Cc1cccc(OCC(=O)Nc2c(C(=O)N3CCN(c4ccccc4)CC3)oc3ccccc23)c1	-4	131	88	102
O=c1cc(-c2ccccc2)sc2ccc(Cl)cc12	.	83	89	100
CCC(C(=O)N1CCOCC1)n1cnc2nc3c(cc2c1=O)CCCC3 (stereo not drawn)	10	.	.	117
O=C(Nc1ccccc1C(F)(F)F)N1CC=C(c2c[nH]c3ccccc23)CC1	.	95	92	218
O=C(C1CC(=O)N(c2ccccc2)C1)N1CCN(c2ccccc2F)CC1 (stereo not drawn)	-34	96	94	104
CC1C(=O)Nc2ccc(S(=O)(=O)NC3CCCC3)cc2NC1=O (stereo not drawn)	7	.	.	98
COc1ccc(NC(=O)c2c(-c3ccc(C)cc3)nnc3ccccc23)c(OC)c1	.	94	82	103
CCOC(=O)c1ccccc1NC(=O)CSc1ncc(S(=O)(=O)c2ccc(Br)cc2)c(=O)[nH]1	-32	.	.	107
Cc1ccc2[nH]c(=O)c3cc(C(=O)NCCc4ccc(Cl)cc4)sc3c2c1	2	116	82	107
COc1ccc(SCc2cc(=O)c3cc(Cl)ccc3[nH]2)cc1	.	99	90	107
COc1ccc(C2C(C#N)=C3N=C(N)c4ccccc4N3C3=C2C(=O)CC(C)(C)C3)cc1 (stereo not drawn)	-14	79	64	115
COCCn1c(SCC(=O)NCc2ccco2)nnc1-c1cccs1	4	65	86	106
Cc1ccc(NC(=O)CONS(=O)(=O)c2ccccc2)cc1C	12	107	94	.
COc1ccc(OC)c(CNC(=O)Cc2ccc(NC(=O)N3CCSc4ncccc43)cc2)c1	.	103	95	104
O=[n+]1cc(-c2cccc(C(F)(F)F)c2)n([O-])c2c1CCCC2	-68	92	98	96
CC(C)NC(=O)c1nn(-c2ccccc2Cl)nc1CO	-13	.	.	110
Cc1nnc(NC(=O)CN2C(=O)c3ccccc3S2(=O)=O)s1	8&-10	81	95	106&100
Nc1ccc2nc(CCC(=O)O)[nH]c2c1	.	116	97	106
COc1ccc(C(=O)NN=C2CCCC2)cc1	-1	110	103	99
Cn1c(=NC(=O)CN2C(=O)CCC2=O)sc2cccc(F)c21	-16	93	89	100
COc1ccc(NC(=O)Cn2c(SCc3c(F)cccc3Cl)nc3ccncc32)cc1OC	-9	95	92	101
O=S1(=O)CCC(n2nnnc2-c2ccc(Cl)cc2)C1 (stereo not drawn)	-16	74	89	.
O=C(Nc1ccccc1F)C1CCCN(c2nc3ccccc3nc2C(F)(F)F)C1 (stereo not drawn)	-14	.	.	98
c1cncc(C2Nc3ccccc3-c3nc4ccccc4n32)c1 (stereo not drawn)	-18	85	91	.
COc1cccc(-c2noc(-c3cc4ccccc4oc3=O)n2)c1	-36	118	90	104
CCOc1ccccc1NC(=O)C1=C(C)Nc2ncnn2C1c1ccc(NC(C)=O)cc1 (stereo not drawn)	.	105	93	99
CC(C)(C)c1ccc2c(c1)N(CC(=O)N1CCOCC1)C(=O)CO2	-42	106	101	100
Cc1cc(N2CCN(C(=O)OC(C)(C)C)CC2)nc(C(C)C)n1	-7	88	96	.
CCSCc1cc(=O)[nH]c(-c2ccc(C(F)(F)F)cc2)n1	-15	91	87	100
O=C(NCc1ccccc1)C1CCCN1C(=O)OCc1ccccc1 (stereo not drawn)	-4	107	92	.
COc1ccc(Cn2c(CNS(=O)(=O)c3ccc4c(c3)CCCC4)nc3cccnc32)cc1	.	100	103	108
CCOc1ccccc1C(=O)Oc1c(S(=O)(=O)c2ccc(C)cc2)c(C)nn1-c1ccccc1	-23	100	90	104
O=C(CC1C(=O)N(c2ccc(F)cc2)C(=O)N1Cc1cccnc1)Nc1ccc(F)cc1 (stereo not drawn)	.	79	81	101
CCC(C)NC(=O)CSc1ncnc2nc(N3CCC(C)CC3)sc12 (stereo not drawn)	2	.	.	102
CC(Oc1ccc(Cl)cc1Cl)C(=O)NN1C(=O)c2ccccc2C1=O (stereo not drawn)	-12	112	74	.
CCCNC(=O)c1cc2cc(OCC)ccc2n1C	1	.	.	99
CCC(=O)N=c1sc2ccccc2n1-c1ccccc1	-21	97	81	100
O=C(Nc1cc(Cl)ccc1O)c1noc2c1CCc1ccccc1-2	-14	.	.	112
CCN1C(=O)C(NC(C)=O)c2cc(C)ccc21 (stereo not drawn)	-7	80	80	106
Cc1oc2ccc(O)c(CN3CCCC3)c2c1C(=O)NCc1ccccc1	-28	.	.	103
O=C(/C=C/c1cccc2ccccc12)N1CCOCC1	-54	105	88	104
CN(Cc1ccccc1)C(=O)C1CCN(c2ccc(-c3cccc(F)c3)nn2)CC1	-45	.	.	98

Six of these compounds, reformatted:
Values in the order – HCMV NEC inh	Sa growth 42C	Sa growth 42C second temp	GIV-Gai inh
CC(Oc1ccc(Cl)cc1Cl)C(=O)NN1C(=O)c2ccccc2C1=O (stereo not drawn)
 : -12	112	74	.
CCCNC(=O)c1cc2cc(OCC)ccc2n1C
 : 1	.	.	99
CCC(=O)N=c1sc2ccccc2n1-c1ccccc1
 : -21	97	81	100
O=C(Nc1cc(Cl)ccc1O)c1noc2c1CCc1ccccc1-2
 : -14	.	.	112
CCN1C(=O)C(NC(C)=O)c2cc(C)ccc21 (stereo not drawn)
 : -7	80	80	106
Cc1oc2ccc(O)c(CN3CCCC3)c2c1C(=O)NCc1ccccc1
 : -28	.	.	103

(listing goes on)
SMILES	HCMV NEC inh	Sa growth 42C	Sa growth 42C second temp	GIV-Gai inh
CC(C)(CC(=O)O)CC(=O)N1CCN(c2nc3cc(Cl)ccc3s2)CC1	-6	105	93	99
Oc1ccc(NCc2ccccc2OCc2ccccc2Cl)cc1	13	89	77	99
CC(C)C(OC(=O)c1cc2occc2n1C(C)C)C(=O)NCC1CCCO1 (stereo not drawn)	-6	104	74	106
O=C(CCc1nc(-c2ccccc2)no1)N1CCOCC1	-20	86	94	99
CCOCCOC(=O)C1=C(C)NC2=C(C(=O)CC(c3ccccc3)C2)C1c1cc2c(cc1Br)OCO2 (stereo not drawn)	-18	.	.	100
COC(=O)C1CCN(S(=O)(=O)c2ccccc2)CC1	-4	93	115	.
COCCCNC(=O)c1cccc(Nc2ccnc(-c3cccc(C)c3)n2)c1	-17	.	.	105
Cc1ccc(-c2csc(N)n2)cc1	-38	97	76	104
Cc1cccc(C)c1NC(=O)Cn1c(SCC(=O)NCc2ccccc2)nc2ccccc21	.	90	87	107
Cc1cc(C)nc(NS(=O)(=O)c2ccc(NC(=O)CSc3cccc4cccnc34)cc2)n1	-42	.	.	104
O=C(O)c1cncn1-c1ccc(F)cc1	-27	103	100	.
CC1=C(c2ccc(F)cc2)S(=O)(=O)N=C1N1CCC(C(=O)NCCc2ccccc2)CC1	.	102	93	103
CCOC(=O)c1c(-c2ccc(C)c(C)c2)csc1NC(=O)c1sc(C)nc1C	-9	.	.	107
Cc1ccc2c(cnn2C(=O)CCC(=O)O)c1	8	104	95	98
